Screening data: PubChem, Fisher Drug Discovery Resource Center
NPYLR7 ag: agonists of mosquito NPYLR7 receptor, primary screen, cell-based, Aedes aegypti, calcium fluorescence, mosquito biting behavior; HEK293T NPYLR7/Galpha15, GCaMP6s calcium fluorescence; activation, % at 10 µM; actives 0.15% (n = 270,000); in the data active means activation above about 40%;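 further: 0% = vehicle and 100% = reference agonist at the receptor; some compounds past the cut are filed as inactive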
NPYLR7 ag max-min: also measured in NPYLR7 ag; calls as there; activation, %; measured here: Max-Min RFU normalised activation; some inactives read as strong as hits;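 span of the calcium signal over five minutes; 0% = vehicle and 100% = native peptide agonist; compound fluorescence can raise it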
Active calls of the source: *. These rows are one share of the data, so the mix of outcomes need not match the whole.

SMILES	NPYLR7 ag	NPYLR7 ag max-min
CN(Cc1cn[nH]c1-c1ccc(F)cc1)C(=O)c1cnn2c1CCCC2	5	5
Cc1ccc(N2CC(CNS(C)(=O)=O)OC2=O)cc1 (stereo unspecified)	3	1
C=CCC(NC(=O)CCCc1nc(C(C)(C)C)no1)c1ccncc1 (stereo unspecified)	17	16
CCN(Cc1ccc(-c2ccn[nH]2)o1)C1CCS(=O)(=O)C1 (stereo unspecified)	0	-1
CC(=O)Nc1ccc(CN(C)c2c(C)nc3ccc(C(=O)NCc4cccs4)cn23)cc1	-9	-12
Cn1ccnc1-c1nccn1Cc1ccncc1	13	10
CCC(=O)Nc1ccc(C)c(NS(=O)(=O)c2cc(C)sc2C)c1	4	-3
COc1ccc(C)c2sc(N(CCCN(C)C)C(=O)c3cc(C)no3)nc12	0	1
Cc1ccsc1C(=O)N1CCN(c2c3c(nc4ncnn24)CCCC3)CC1	4	0
O=C(COC(=O)c1cc(Br)c(Br)s1)c1ccc(Cl)s1	1	7

(continued)
SMILES	NPYLR7 ag	NPYLR7 ag max-min
CCOC(=O)c1[nH]c(COC(=O)c2ccc(C)s2)c(C(=O)OCC)c1C	-1	-2
COc1cc(C(=O)N2CCN(c3ccc(NC(=O)c4ccco4)cn3)CC2)cc(Cl)n1	-1	-11
COc1cccc(COc2coc(CN3CCCN(C(=O)C45CC6CC(CC(C6)C4)C5)CC3)cc2=O)c1	2	1
COCCCN(CC(=O)Nc1cc(C(C)(C)C)nn1-c1ccccc1Cl)C(=O)c1ccc([N+](=O)[O-])cc1	15	19
COc1cccc(-c2nnc3ccc(OCCNC(=O)COc4ccccc4)nn23)c1	-11	-15
Cc1ccc(NC(=O)C2CCN(Cc3ccc(F)c4cccnc34)CC2)nc1	-4	-4
Cc1noc(C(C)C)c1C(=O)N1CCN(S(=O)(=O)N(C)C)CC1	-1	-2
Cc1cccc(S(=O)(=O)N2CCC(CCc3ccc(-c4ccccc4)cc3)CC2)c1	0	1
Cc1c(C(=O)NCCC(C)C)c(C(F)(F)F)nn1C1CCCN(C)C1 (stereo unspecified)	12	0
CN(Cc1ccco1)c1cc(Oc2ccc(F)cc2)ncn1	15	26

The listing continues:
SMILES	NPYLR7 ag	NPYLR7 ag max-min
Cc1noc(C)c1NC(=O)c1cccc(CN2CC[C@@H]3CCCC[C@H]3C2)c1	1	1
CC(C)C1CN(C(=O)c2cc3ccccc3n2C)CCCN1CC1CC1 (stereo unspecified)	9	9
Cc1cccc(CN2CCCC3(CCN(C(=O)CCc4ccccc4C)C3)C2)c1 (stereo unspecified)	-1	-4
Cc1cccn2c(CNCc3ccccc3-n3cncn3)c(C(=O)N3CCOCC3)nc12	2	9
CCc1nc2c(OCc3ccc(Cl)cc3)cccn2c1N(C)C(=O)c1ccc2c(c1)OCO2	-17	4
CCOC(=O)c1sc(N=CN(C)C)c(C(=O)OCC)c1C	5	5
Cc1sc(-c2ccco2)nc1C(=O)Nc1cccc(S(C)=O)c1 (stereo unspecified)	10	2
O=C(c1cnn2c(C(F)(F)F)cc(-c3ccc4c(c3)OCO4)nc12)N1CCCc2ccccc21	-4	-5
O=C(c1cc(Br)ccc1F)N1CCN(S(=O)(=O)Cc2ccccc2)CC1	11	5
CCOC(=O)c1sc(=NC(=O)c2ccc3ncsc3c2)n(C)c1C	2	-1

(listing goes on)
SMILES	NPYLR7 ag	NPYLR7 ag max-min
Cc1nc2ccccc2s1	9	7
COc1cc(C=C2COc3ccccc3C2=O)ccc1OCc1ccccc1	-4	-11
Cn1c(=O)c2c(nc(CN3CCCCC3)n2CC(=O)C(C)(C)C)n(C)c1=O	18	10
Nc1ncnc(NN=Cc2ccccn2)c1[N+](=O)[O-]	1	23
Cc1nccn1CC1CCCN(Cc2ccc3cccc(F)c3n2)C1 (stereo unspecified)	-2	-7
CCn1cc(C(=O)Nc2ccc(NC(=O)c3ccc(C)o3)cc2)c(C)n1	24	17
COc1ccc(-n2c(C)nnc2SCc2ccc(C(=O)NCc3ccco3)cc2)cc1	1	17
CCc1nc2ccc(C(=O)NCc3cccs3)cn2c1N(C)Cc1cccs1	-2	-12
CCN(CC)Cc1cnc2c(C(=O)NCc3nnc4n3CCC4)cnn2c1	1	0
CS(=O)(=O)N1CCc2cc(-c3csc(Cc4nc5ccccc5s4)n3)ccc21	2	6

Other compounds follow.
SMILES	NPYLR7 ag	NPYLR7 ag max-min
O=C(CCc1n[nH]c2c1CCCC2)NCc1ccc2c(c1)OCO2	8	7
Cn1ccc2c(cnc3nc(-c4ccccc4)nn32)c1=O	-2	2
COCc1c(Br)c(C)nc(OCC(=O)N/N=C\c2cc(Br)c(O)c(Br)c2)c1C#N	10	17
COc1ccc(OC)c(CN(C2CC2)S(=O)(=O)c2ccccc2F)c1	-2	-4
CCONC(=O)C1CCCN1c1nc(Cc2ccccc2)ns1 (stereo unspecified)	2	15
COc1ccc(Cc2nc3c(c(N4CCOCC4)n2)CN(C(=O)Nc2cccc4ccccc24)CC3)cc1	-4	8
O=C(CN1CN(c2ccccc2)C2(CCN(C(=O)c3cccs3)CC2)C1=O)NC1CCCCC1	-5	-4
Cc1nc2ccccc2n1Cc1ccc(F)cc1	1	3
O=C(CCN1C(=O)c2ccccc2C1=O)NCc1ccccn1	-11	-15
CCN(CCn1cccn1)C(=O)CCc1nnc(Cc2c[nH]c3ccccc23)o1	-2	-3

Compounds from the list above containing a Cl atom, in the order listed:
SMILES	NPYLR7 ag	NPYLR7 ag max-min
O=C(COC(=O)c1cc(Br)c(Br)s1)c1ccc(Cl)s1	1	7
COc1cc(C(=O)N2CCN(c3ccc(NC(=O)c4ccco4)cn3)CC2)cc(Cl)n1	-1	-11
COCCCN(CC(=O)Nc1cc(C(C)(C)C)nn1-c1ccccc1Cl)C(=O)c1ccc([N+](=O)[O-])cc1	15	19
CCc1nc2c(OCc3ccc(Cl)cc3)cccn2c1N(C)C(=O)c1ccc2c(c1)OCO2	-17	4

(cont.)
SMILES	NPYLR7 ag	NPYLR7 ag max-min
COc1ccc(-n2nc(C)c(-c3ccccc3)c2NC(=O)CN(C(=O)Nc2ccc(F)c(F)c2)C(C)C)cc1	-1	5
NC1(c2noc(-c3cccnc3)n2)CCCCCC1	-2	-2
C(=Nn1c(-c2ccccc2)csc1=NCC1CCCO1)c1c[nH]c2ccccc12 (stereo unspecified)	6	8
CN1[C@H]2CC[C@@H]1CN(C(=O)c1ccc(N3CC(=O)NC3=O)cc1)CC2	-3	-7
O=C(CSc1nccn1Cc1ccccc1)NC(=O)NC1CCCC1	-8	10
COCCC(=O)Nc1ccc2c(c1)CN(C/C(C)=C/c1ccccc1)CC2	10	6
COc1ccc(NC(=O)N2CCSC23C(=O)N(Cc2ccccc2Cl)c2ccc(Cl)cc23)cc1 (stereo unspecified)	-5	7
COc1ccc(-n2nnc3c(=O)[nH]cnc32)cc1OC	-4	-5
O=C(Nc1ccc2c(c1)OCO2)c1sc2ccccc2c1Cl	-6	-7
CCC(Oc1ccccc1)C(=O)N1Cc2cnn(Cc3ccc(F)cc3)c2C1 (stereo unspecified)	2	1

More compounds follow.
SMILES	NPYLR7 ag	NPYLR7 ag max-min
O=C(NCCc1ccccc1)c1ccc(OC2CCN(C(=O)C3CC34CCC4)CC2)cc1 (stereo unspecified)	11	0
Cc1cc(C)cc(C(=O)Nc2sc3c(c2C(N)=O)CCC3)c1	-4	-5
COc1ccc(/C=N\NC(=O)Cn2cnc([N+](=O)[O-])n2)cc1OC	-10	-16
CNC1(c2nnnn2CCOC(=O)Nc2ccc(Cl)cc2)CCCC1	15	13
CCn1c(-c2ccccc2)cnc1SCC(=O)N1CCNC1=O	-7	-9
COc1cccc(Cc2nsc(N3CCCC(C(=O)N4CCN(C(c5ccccc5)c5ccccc5)CC4)C3)n2)c1 (stereo unspecified)	13	16
CC(NS(=O)(=O)Cc1ccccc1F)c1cccc(Cl)c1 (stereo unspecified)	-3	-5
COc1ccc(OC)c(NC(=O)NCCCn2cccn2)c1	-3	-6
CN(C(=O)c1nn(-c2ccc(Cl)cc2)c(=O)n(Cc2cccc(Cl)c2)c1=O)C1CCCCC1	13	13
CCOC(=O)c1[nH]c(C)c(C(=O)CN(C(=O)c2cc(C(F)(F)F)cc(C(F)(F)F)c2)C2CC2)c1C	0	6

Going on with the list:
SMILES	NPYLR7 ag	NPYLR7 ag max-min
NC(=O)c1nc(-c2ccccc2Cl)nc2c1[nH]c(=O)n2-c1ccccc1F	-3	-6
CCOc1ccc(/C=C2\C(=O)NC(=S)N(c3ccc(OC)cc3)C2=O)cc1OC	-7	-15
COc1ccc(Cc2nc3ccc(C(=O)NC4CCc5ccccc54)cc3o2)cc1OC (stereo unspecified)	5	1
CCCCCC(=O)Oc1cccc(N2C(=O)c3ccccc3C2=O)c1	3	-1
Cc1c(C(C)NC2CCSCC2)cnn1-c1cccc(F)c1 (stereo unspecified)	2	1
CCCOc1ccc(C(C)NC(C)c2nnc(C)o2)cc1OC (stereo unspecified)	-1	-2
Cc1ccc(C2CC(C(=O)Nc3cccc(S(C)(=O)=O)c3)=NO2)cc1 (stereo unspecified)	-2	-3
CN(CCc1ccccn1)c1ncccc1CNC(=O)c1ccc2c(c1)OCO2	7	9
CN1CC2(CCN(C(=O)c3ccc4cccnc4c3O)CC2)CC1C(=O)O (stereo unspecified)	-1	-4
Cc1ccc(-n2nc(C(=O)NCCc3ccccn3)c(=O)n(Cc3cccc(Cl)c3)c2=O)cc1F	0	8

(further entries)
SMILES	NPYLR7 ag	NPYLR7 ag max-min
COc1cc(CNc2ccc3nnnn3n2)ccn1	-2	-3
CC(C)c1cccc(C(C)C)c1NC(=O)N1CCc2nc(-c3ccccc3)nc(N(C)C)c2C1	13	14
CCOC(=O)c1cc(NC(=O)Nc2nccs2)c[nH]1	0	-8
COc1ccc(/C=N\OCC(=O)N=Nc2c(O)[nH]c3ccccc23)cc1	2	-4
Cc1c(CN(C)C(=O)c2cccc(C#CC(C)(C)O)c2)cnn1C	18	10
NC(=S)Nc1ccc(Cl)cc1	1	7
Cc1cc(O)c(C(c2cccc(F)c2)N2CCN(C)CC2)c(=O)n1Cc1ccccc1 (stereo unspecified)	5	4
COc1ccc(Cl)c2sc(N(CCN(C)C)C(=O)c3cc(C)on3)nc12	6	5
O=C(O)c1coc(CN(CCc2c[nH]c3ccccc23)Cc2cccc(F)c2)n1	-7	-1
Cc1c(/C=C/C(=O)c2ccc(I)cc2)cnn1C	-3	-9

(list continues)
SMILES	NPYLR7 ag	NPYLR7 ag max-min
COc1ccc(C(=O)N2CCCc3cccc(Cl)c32)cc1OC(F)F	9	10
COc1cccc(CN(C)C(=O)Nc2cc(Cl)ccc2F)c1	2	1
c1ccc(-c2cc(-c3nnc(SCc4ccc(-c5csnn5)cc4)n3CC3CCCO3)c3ccccc3n2)cc1 (stereo unspecified)	0	6
CC1CCCC(NC(=O)C2CC(=O)N(N(C)c3ccccc3)C2)C1 (stereo unspecified)	-1	-6
CCNC(=O)NC(=O)CN(c1nccs1)S(=O)(=O)c1ccccc1	0	-2
CCn1c(C)cc(C)c(C(=O)N2CCOC(c3ccc(Cl)cc3)C2)c1=O (stereo unspecified)	-1	-3
CC(=O)NCc1ccc(-c2csc(NC(=O)C(C)Sc3ccccc3)n2)o1 (stereo unspecified)	0	6
CCOC(=O)c1nc2cc(C)c(C)cc2nc1N1CCN(C(=O)c2ccc(Cl)nc2)CC1	2	0
COC(=O)C1=C(O)/C(=C\c2cccc(F)c2O)SC1=Nc1cccc([N+](=O)[O-])c1	-3	-1
CC(C)N1C(=O)COCc2cc(-c3cc4ccccc4o3)ccc21	11	6

Four structures already listed, sorted by molecular weight, ascending:
SMILES	NPYLR7 ag	NPYLR7 ag max-min
CC1CCCC(NC(=O)C2CC(=O)N(N(C)c3ccccc3)C2)C1 (stereo unspecified)	-1	-6
CCNC(=O)NC(=O)CN(c1nccs1)S(=O)(=O)c1ccccc1	0	-2
CCn1c(C)cc(C)c(C(=O)N2CCOC(c3ccc(Cl)cc3)C2)c1=O (stereo unspecified)	-1	-3
c1ccc(-c2cc(-c3nnc(SCc4ccc(-c5csnn5)cc4)n3CC3CCCO3)c3ccccc3n2)cc1 (stereo unspecified)	0	6

(further entries)
SMILES	NPYLR7 ag	NPYLR7 ag max-min
CC(C)NC(=O)CSCc1nc2ccccc2s1	2	0
Cn1cnc2c1c(=O)n(CCCN1C(=O)C3(CC(=O)N(Cc4ccccc4)C3=O)c3ccccc31)c(=O)n2C (stereo unspecified)	11	4
CCc1ccsc1C(=O)N1CC(CNC(=O)OC(C)(C)C)CC1C (stereo unspecified)	0	-1
CC(=O)Nc1ccc(SCCCC(=O)N2CCN(CCc3ccccc3)CC2)nn1	1	-2
CC(C)(CCl)C(=O)N(CC(=O)N1CCc2sccc2C1c1ccc(Cl)cc1Cl)Cc1ccco1 (stereo unspecified)	8	12
CCN1C[C@H]2CN(C)c3ccccc3[C@@H]2N(C(=O)OCC(C)C)CCC1=O	19	20
CCn1c(CNC(=O)Nc2ccccc2C(C)(C)C)n[nH]c1=S	-2	26
COc1ccccc1NC(=O)CCN(C)Cc1ccc(C(C)C)cc1	18	10
COc1cc2c(cc1CN(C)Cc1snnc1C)CCC2	25	17
O=C1c2ccccc2NC(c2ccc(O)c(O)c2)N1c1ccc2c(c1)OCCO2 (stereo unspecified)	2	8

The list goes on.
SMILES	NPYLR7 ag	NPYLR7 ag max-min
C=CCNC(=O)c1cc2cc(Cl)ccc2oc1=O	1	-1
Cc1ccc(C2(O)CCN(C(=O)c3cccc(-c4cn[nH]c4)c3)CC2)nc1	9	5
Cc1ccc2nc(C)c(NC(=O)Nc3cccc(Cl)c3)c(=O)n2c1	0	-1
FC(F)(F)c1cccc(N2CCC(N=Cc3ccccc3C(F)(F)F)=N2)c1	-14	-19
CC(C)CNC(CC(=O)Nc1cccc(F)c1)C(=O)O (stereo unspecified)	1	-2
Cc1c(CN2CCN(C3CCCC3)C(CCO)C2)[nH]c2c(Cl)cccc12 (stereo unspecified)	4	-2
Cc1ccc2c(c1)CN(CC(=O)NCCc1nc3ccccc3n1C)CC(c1ccsc1)O2 (stereo unspecified)	18	3
COc1ccc(S(=O)(=O)N(C)CC(=O)Nc2ccccc2Sc2ccccc2)cc1Cl	7	8
Cc1ccc(-n2ccnc2-c2nccn2C)c(Cl)c1	8	4
